High-throughput results (PubChem)
GIRK2 act = GIRK2 channel activation | P48051 | HEK293-GIRK2 thallium flux, Thallos fluorescence | calls only for hits at 25 µM | 0.05% of 63,000 active | AID 1259325;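 active means among the strongest 0.2% of first-round signals and kept after retests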;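 further: first round at about 10 µM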
Target sequence (P48051 whole entry, looked up): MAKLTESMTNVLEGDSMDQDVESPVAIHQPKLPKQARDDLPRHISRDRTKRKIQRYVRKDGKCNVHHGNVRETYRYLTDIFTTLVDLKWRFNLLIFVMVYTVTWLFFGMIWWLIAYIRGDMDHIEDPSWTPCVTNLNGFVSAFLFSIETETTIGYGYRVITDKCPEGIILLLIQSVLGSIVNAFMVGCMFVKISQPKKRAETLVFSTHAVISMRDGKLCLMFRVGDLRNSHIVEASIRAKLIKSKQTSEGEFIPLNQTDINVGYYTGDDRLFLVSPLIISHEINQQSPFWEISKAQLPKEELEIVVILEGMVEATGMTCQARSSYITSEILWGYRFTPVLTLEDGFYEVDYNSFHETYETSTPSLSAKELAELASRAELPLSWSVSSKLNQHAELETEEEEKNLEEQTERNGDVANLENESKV
Calls only; i = inactive. Not all compounds are listed; the hit share may differ from the screen's.

Sample of the layout, two compounds:
SMILES	GIRK2 act
CC(C)CNC(=O)c1ccc2c(=O)n(C(C)C)c3nn(Cc4ccc(F)cc4Cl)c(=O)n3c2c1	i
O=C(c1cccc2ccccc12)N1CCC(CSCc2ccco2)CC1	i

Main list, from the start:
SMILES	GIRK2 act
CC(C)CNC(=O)c1ccc2c(=O)n(C(C)C)c3nn(Cc4ccc(F)cc4Cl)c(=O)n3c2c1	i
O=C(c1cccc2ccccc12)N1CCC(CSCc2ccco2)CC1	i
Cc1cn2c3c(=O)n(CCN4CCOCC4)c(=O)n(C)c3nc2n1-c1ccc(Br)cc1	i
COc1cc(/C=C2\Oc3cc(OC(=O)CCCCl)ccc3C2=O)cc(OC)c1OC	i
O=C(CCn1cnc2c([nH]c3ccccc32)c1=O)NCc1ccccc1Cl	i
Cc1cc(CNS(=O)(=O)c2ccc(OC(F)(F)F)cc2)c(C)o1	i
O=C1C2C3C=CC(C3)C2C(=O)N1c1cccc(N2C(=O)C3C4C=CC(C4)C3C2=O)c1 (configuration not stated)	i
O=C(Cc1cccs1)NCc1cc(-c2cccs2)n(C2CCCC2)n1	i
COc1cccc(CNC(=O)C(=O)NCC(C)(O)c2ccco2)c1 (configuration not stated)	i
CC1=C(C(N)=O)C(c2ccc(C(F)(F)F)cc2)n2ncnc2N1 (configuration not stated)	i
Cc1cccc(NC(=O)/C(C#N)=C2\SC(Cc3ccccc3Cl)C(=O)N2c2ccccc2)c1C (configuration not stated)	i
COc1nn(C)cc1C(=O)Nc1nnc(SCC(=O)N2CCCCCC2)s1	i
COc1ccc(OC)c(NC(=O)CSc2nccc(N3CCN(c4ccccc4OC)CC3)n2)c1	i
Cc1ccnc(Nc2cc(N3CCN(C(=O)/C=C/c4ccccc4)CC3)nc(C)n2)c1	i
O=C(Nc1cc(OCc2ccc3c(c2)OCO3)ncn1)c1cc(C2CC2)on1	i
COc1ccc(OC)c(-c2cc(C(=O)NCc3cccs3)n(C)n2)c1	i
COc1ccc(NC(=O)COc2ccc3ccccc3c2)cc1N1CCCCC1=O	i
Cc1cc(N2N=NC3C(=O)N(c4ccc(F)cc4)C(=O)C32)ccc1Br (configuration not stated)	i
COc1ccc(Br)c(CN2N=NC3C(=O)N(c4ccc(F)cc4)C(=O)C32)c1 (configuration not stated)	i
COc1ccc(CNC(=O)CCCCCn2c(=S)[nH]c3ccc(Br)cc3c2=O)cc1	i

Quoted at random: seven records from the list, in no set order.
SMILES	GIRK2 act
CC(C)CNC(=O)c1ccc2c(=O)n(C(C)C)c3nn(Cc4ccc(F)cc4Cl)c(=O)n3c2c1	i
O=C(CCn1cnc2c([nH]c3ccccc32)c1=O)NCc1ccccc1Cl	i
COc1nn(C)cc1C(=O)Nc1nnc(SCC(=O)N2CCCCCC2)s1	i
O=C(c1cccc2ccccc12)N1CCC(CSCc2ccco2)CC1	i
Cc1cc(CNS(=O)(=O)c2ccc(OC(F)(F)F)cc2)c(C)o1	i
COc1cccc(CNC(=O)C(=O)NCC(C)(O)c2ccco2)c1 (configuration not stated)	i
COc1cc(/C=C2\Oc3cc(OC(=O)CCCCl)ccc3C2=O)cc(OC)c1OC	i

New compounds follow.
SMILES	GIRK2 act
Cc1ccc(C)c(NC(=O)Cn2c(-c3nc(-c4ccccc4)no3)cccc2=O)c1	i
COc1ccc(-c2noc(-c3ccc(=O)n(Cc4cc(C)ccc4C)c3)n2)cc1OC	i
O=C(/C=C/c1cccs1)NCC1CCN(S(=O)(=O)c2cccnc2)CC1	i
CC(C)(C)n1nc2c(c1NC(=O)C(=O)NCCCc1ccccc1)CSC2	i
CCOc1ccc(NC(=O)COc2cc(C)nc(N3CCCC(C)C3)n2)cc1 (configuration not stated)	i
COc1cccc(Cn2nnc3c(=O)n(Cc4nc(-c5ccc(OC)c(OC)c5)no4)cnc32)c1	i
Cc1cc(C)cc(-n2c(-c3ccccc3)cn3c4c(=O)n(CCN5CCOCC5)c(=O)n(C)c4nc23)c1	i
O=C(CSc1ccc2ccccc2n1)Nc1ccc2c(c1)OCCO2	i
COCCCn1c(O)c(C=Nc2ccc(O)cc2)c(C)c(C#N)c1=O	i
Cc1csc(C(=O)NCc2cc(C3CC3)n(C)n2)c1	i
Cc1cc(C(=O)Nc2nc3c(s2)CN(C(=O)C2COc4ccccc4O2)CC3)no1 (configuration not stated)	i
Cc1cc(N)nc(Nc2ccc(F)c(Cl)c2)n1	i
COc1cccc(CCNC(=O)CC2CCCCN2S(=O)(=O)c2ccccc2)c1 (configuration not stated)	i
COc1cccc(-n2nnc(C(=O)NCCc3ccc(Cl)cc3)c2-c2ccncc2)c1	i
CC(C)Oc1ccc(C(=O)N2C3CCC2COC3)cc1	i
N#Cc1nc(-c2ccc(S(=O)(=O)N3CCOCC3)cc2)oc1N1CCCCCC1	i
COc1ccccc1CNC(=O)CC1CCCCN1S(=O)(=O)c1ccc(F)cc1 (configuration not stated)	i
O=C(CCCn1nnc2ccccc2c1=O)Nc1ccc(OC(F)(F)F)cc1	i
O=C(COc1ccc(Cl)cc1)NCc1ccc(C(=O)c2cccs2)s1	i
O=C(CCCSc1ccc(NC(=O)c2ccco2)nn1)NCc1ccccn1	i
Cc1ccccc1Oc1nccn2c(=O)n(CC(=O)Nc3ccc(Cl)c(Cl)c3)nc12	i
COCCn1c(-n2nc(C)cc2C)nc2c1c(=O)n(Cc1cc(C)ccc1C)c(=O)n2C	i
COCCn1c(C)cc(C(=O)CSc2nnc3scc(-c4ccc(C)cc4)n23)c1C	i
O=C(NCc1ccc2c(c1)OCO2)c1n[nH]nc1Nc1ccc(Cl)cc1	i
O=C(c1ccc2nsnc2c1)N1CCN(C2=NN=C(c3cccs3)CS2)CC1	i
COc1cccc(C(=O)NCCNc2cc(Nc3ccccn3)nc(C)n2)c1OC	i
N#Cc1ccc(C(=O)c2cnn(-c3ccc(F)cc3)c2N)cc1	i
O=C(NC1CC1)c1ccc(OCc2nc(-c3ccco3)cs2)cc1	i
CNC(=O)c1ccc(Cn2c(=O)c3cc(OC)c(OC)cc3n(Cc3cccc(C)c3)c2=O)cc1	i
CC(C)C1NC(=O)CNC(=O)C2CCCN2C(=O)C(Cc2c[nH]c3ccccc23)NC(=O)CNC(=O)C(C(O)c2ccc(O)cc2)NC(=O)CNC1=O (configuration not stated)	i
CCOc1ccc(NC(=O)c2cc(=O)c(OCC)co2)cc1	i
COc1ccccc1NC(=O)NCC(O)(c1ccccc1)C1CC1 (configuration not stated)	i
COc1ccc(NC(=O)Cn2c(=O)nc(-c3ccccc3)c3cc(Cl)ccc32)cc1OC	i
CC(C)(C)NC(=O)CN1CCN(CC(O)c2cccs2)CC1 (configuration not stated)	i
COc1ccc(C2CCN(C(=O)c3cn(C)nc3OC)C2)cc1 (configuration not stated)	i
CC(C)(C)c1cc(NC(=O)c2nnn(-c3ccc(F)cc3)n2)on1	i
Cn1c2ccccc2c(=O)c2c(=O)n(Cc3ccco3)c(-c3cccc([N+](=O)[O-])c3)nc21	i
COCCn1c(-c2ccccc2)nc2oc3cc(OC)ccc3c(=O)c2c1=O	i
COc1cccc(NC(=O)C2=Cc3cc(Cl)ccc3OC=C2)c1	i
NC(=O)CSc1nnc(N2CCN(C(=O)c3cccs3)CC2)s1	i

Compounds shown so far with an NH in an aromatic ring, in the order listed:
SMILES	GIRK2 act
O=C(CCn1cnc2c([nH]c3ccccc32)c1=O)NCc1ccccc1Cl	i
COc1ccc(CNC(=O)CCCCCn2c(=S)[nH]c3ccc(Br)cc3c2=O)cc1	i
O=C(NCc1ccc2c(c1)OCO2)c1n[nH]nc1Nc1ccc(Cl)cc1	i
CC(C)C1NC(=O)CNC(=O)C2CCCN2C(=O)C(Cc2c[nH]c3ccccc23)NC(=O)CNC(=O)C(C(O)c2ccc(O)cc2)NC(=O)CNC1=O (configuration not stated)	i

Further entries follow:
SMILES	GIRK2 act
Cc1ccc(C(=O)N2CCN(c3oc(-c4ccc(C)cc4)nc3C#N)CC2)cc1	i
CC(Oc1ccc(Cl)cc1Cl)C(=O)Nc1nonc1-c1ccccc1 (configuration not stated)	i
CCOC(=O)c1oc2cc(O)c(CC)cc2c(=O)c1-c1ccc2c(c1)OCCO2	i
Cc1cc(C)n(-c2ncc(NC(=O)c3sc(-c4ccccc4)nc3C)cn2)n1	i
COc1ccc(-c2ccc(C(=O)Nc3ccc(C)c(C)c3)o2)c([N+](=O)[O-])c1	i
CCCCn1cc(S(=O)(=O)c2ccc(C)cc2)c(=O)c2cc(F)c(N3CCN(CC)CC3)cc21	i
O=C(Nc1ccnc2ccc(Cl)cc12)c1ccc(S(=O)(=O)NC2CC2)cc1	i
Cc1ccc(-c2cc3c(=O)n(CC(=O)NCC4CCCO4)ncn3n2)cc1C (configuration not stated)	i
COc1ccc(Cl)cc1NC(=O)CN1CC(c2nc(-c3ccco3)no2)C1	i
COc1ccccc1CCNC(=O)c1cc(-c2cccs2)nn1C	i
COC(=O)C(C)Oc1ccc2c(c1)O/C(=C\c1sccc1C)C2=O (configuration not stated)	i
COc1ccc(-c2c(-c3ccc(OC)cc3O)nc(N)nc2C(F)(F)F)cc1	i
NC(=O)c1c(NC(=O)CCS(=O)(=O)Cc2ccccc2)sc2c1CCCC2	i
O=C1CCCN1c1ccc(Cn2nc3c(-c4nc(-c5ccccc5)no4)cccn3c2=O)cc1	i
COc1ccccc1-n1nnc(C(=O)N2CCCC2)c1-c1ccccn1	i
CC1=C(C(=O)OC(C)C)C(c2ccc(Cl)cc2Cl)NC(=O)N1 (configuration not stated)	i
O=C(c1cc2cccnc2n(Cc2ccccc2F)c1=O)N1CCCc2ccccc21	i
Cc1nc(C)c(CNS(=O)(=O)c2ccc3c(c2)OCCO3)s1	i
COc1cc([C@H]2OC[C@@H]3[C@@H](c4ccc(O[C@@H]5O[C@H](CO)[C@@H](O)[C@H](O)[C@H]5O)c(OC)c4)OC[C@]23O)ccc1O	i
CC(C)CNC(=O)C(=O)NCCc1ccoc1	i
O=C(Cc1ccccc1)Nc1cc(-c2cccs2)nn1-c1nc(-c2ccccc2)cc(=O)[nH]1	i
CC(C)Cc1sc(N)nc1-c1ccc(P(=O)(O)O)o1	i
COc1ccccc1-c1noc(C2CN(C(=O)Nc3c(F)cccc3F)C2)n1	i
O=C(CNC(=O)c1ccc(=O)[nH]c1)Nc1nccs1	i
CC(C)c1nc2ccccc2n1CCOc1ccc(Cl)cc1	i
COCCSc1nc(-c2cccs2)cc(C(F)(F)F)c1C#N	i
CC(C)OC(=O)CCC/C=C\C[C@@H]1[C@@H](/C=C/[C@@H](O)CCc2ccccc2)[C@H](O)C[C@@H]1O	i
O=C(NC12CC3CC(CC(C3)C1)C2)N1C2CCC1COC2	i
CCOc1ccc(-c2noc(-c3sccc3S(=O)(=O)N(C)c3ccccc3)n2)cc1	i
Cc1cc(C(=O)N2CCC(c3nnc(C(C)C)o3)CC2)no1	i
CCCN(Cc1ccsc1)S(=O)(=O)Cc1cccc(F)c1	i
COc1cccc(N2CC(C(=O)Nc3nnc(-c4csc(C)n4)o3)CC2=O)c1 (configuration not stated)	i
O=C(COc1ccc2c(=O)c(-c3ccccc3)coc2c1)OCc1ccccc1	i
O=C(NCC1CCN(C2CCCC2)CC1)c1cccc(C(F)(F)F)c1	i
CC1CCN(C(=O)Cn2cccc(S(=O)(=O)N3CCCCCC3)c2=O)CC1	i
Cc1ccc(=O)n(CC(=O)NCCc2c[nH]c3ccccc23)n1	i
CCN(CC)CCN1C(=O)c2oc3ccccc3c(=O)c2C1c1cccc(OC)c1 (configuration not stated)	i
O=C(Nc1ccc(Cl)cc1)Nc1ccc(Cl)c(N2CCCS2(=O)=O)c1	i
CCOc1ccccc1C(=O)Nc1ccc(-n2c(C)nc3ncccc3c2=O)cc1	i
CCOc1ccccc1CN1C(=O)C2(SC(NC(C)=O)=NN2C(C)=O)c2cccc(Cl)c21 (configuration not stated)	i
COc1cccc(CC(=O)NCC2(c3ccccc3)CCOCC2)c1	i
COc1ccccc1NC(=O)Cn1nnc(-c2ccccc2)n1	i
O=C(NCCc1cccs1)c1csc(Nc2ccccn2)n1	i
COc1ccc(F)cc1S(=O)(=O)N1CCCC(c2nnc(Cc3ccccc3)s2)C1 (configuration not stated)	i
O=C(CN1N=NC2C(=O)N(c3ccc(F)cc3)C(=O)C21)Nc1ccc(Oc2ccccc2)cc1 (configuration not stated)	i
CCOC(CNC(=O)c1nnn(-c2ccc(OC)cc2)n1)OCC	i
O=C(Cn1c(=O)oc2ccccc21)N1CCCC(COCc2ccccc2)C1 (configuration not stated)	i
COc1ccc(CCC(=O)Nc2ccc3c(c2)N(S(=O)(=O)c2ccc(C)cc2)CCC3)cc1	i
NC(=O)c1nnn(-c2ccc(NC(=O)c3ccc(S(=O)(=O)N4CCCC4)cc3)cc2)n1	i
C=C(C)C(=O)OC1CC(CO)CCC/C(CO)=C/C2OC(=O)C(=C)C21 (configuration not stated)	i
Cc1noc(C)c1S(=O)(=O)N1CC(c2nc(-c3ncccn3)no2)C1	i
Cn1cnnc1SCc1cc(=O)c(OCC(=O)N2CCCc3ccccc32)co1	i
Cc1csc(SCC2CCN(C(=O)NCc3cccs3)CC2)n1	i
O=C1c2c(O[C@@H]3O[C@H](CO)[C@@H](O)[C@H](O)[C@H]3O)cc(O)cc2OC1(O)Cc1ccc(O)cc1 (some centres not stated)	i
COc1ccc(-c2coc3c4c(ccc3c2=O)OCN(CCc2cccs2)C4)cc1	i
O=C(NCC(O)c1ccoc1)NC(c1ccccc1)c1ccccc1 (configuration not stated)	i
CC(C)N1CCC(CNS(=O)(=O)Cc2ccc(C(F)(F)F)cc2)CC1	i
CCc1ccc(NC(=O)Cn2cccc(-c3nc(-c4ccc(OC)c(OC)c4)no3)c2=O)cc1	i
CCCS(=O)(=O)N1CCCc2ccc(NS(=O)(=O)c3cc(C)ccc3OCC)cc21	i
COC(=O)c1ccc(C(=O)NCC2(O)CCOc3ccccc32)cc1 (configuration not stated)	i
CCCN(CCC)S(=O)(=O)c1ccc2cc(OC)ccc2c1	i
CCn1cc(C(=O)NCCc2cccs2)c(=O)c2cc(OC)ccc21	i
C=CC(C)(O)CC/C=C(/C)COC(=O)C(C)C1CCC(C)(C=C)O1 (configuration not stated)	i
